Source: PubChem (National Center for Advancing Translational Sciences (NCATS))
TRPML1 agonist = qHTS for Agonists of the Human Mucolipin Transient Receptor Potential 1 (TRPML1) | TRPML1-expressing cells, Ca2+ dye fluorescence, FDSS; host cell line not named in the record; reference of the full effect not given here | activation, % (no concentration beside the values) | AID 624414, 2012 | actives 0.12% (n = 410,000); in the data active = activation above about 50%; inconclusive = about 30% to 50%; inactive = below about 30%; also: 0% is about no effect; the text of the record puts the active cut at 80%
Target sequence (Q9GZU1 whole entry, looked up): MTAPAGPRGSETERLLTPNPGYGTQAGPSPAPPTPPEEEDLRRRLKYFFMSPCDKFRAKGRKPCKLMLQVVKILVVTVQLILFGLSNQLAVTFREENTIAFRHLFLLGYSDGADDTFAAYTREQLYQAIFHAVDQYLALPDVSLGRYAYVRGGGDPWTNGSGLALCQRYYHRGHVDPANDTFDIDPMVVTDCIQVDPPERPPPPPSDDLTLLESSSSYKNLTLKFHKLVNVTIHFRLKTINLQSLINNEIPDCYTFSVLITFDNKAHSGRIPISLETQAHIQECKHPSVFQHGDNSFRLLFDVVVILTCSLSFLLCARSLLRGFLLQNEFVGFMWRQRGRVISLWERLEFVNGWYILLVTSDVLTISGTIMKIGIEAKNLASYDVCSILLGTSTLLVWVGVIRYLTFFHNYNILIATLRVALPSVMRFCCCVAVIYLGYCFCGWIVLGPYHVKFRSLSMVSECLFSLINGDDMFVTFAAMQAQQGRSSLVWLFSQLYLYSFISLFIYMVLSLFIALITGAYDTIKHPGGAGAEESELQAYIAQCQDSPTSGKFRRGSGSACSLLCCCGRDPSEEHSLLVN
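In this qHTS format, compounds were pin-transferred onto Ca8-dye-loaded TRPML1-DL cells induced with Tet overnight, and intracellular Ca2+ fluorescence was recorded kinetically for 110 s after a 10 s baseline. A subsequent 4uM final 54-4 (EC80) addition followed by a second 110 s read served as the antagonist phase.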
CtBP-E1A inh = qHTS Assay for Inhibitors of the CtBP/E1A Interaction | CtBP / adenovirus E1A interaction (AlphaScreen) | actives 0.49% (n = 340,000) | AID 651724, 2012 | activity change, % (test concentration not listed) | AlphaScreen GST-E1A/His-CtBP binding, 1536-well; active compounds read low; control for the full effect not named in the record; in the data active means activity change below about -65%; inconclusive means about -30% to -65%; inactive means above about -30%; also: % is scaled to controls: 0 for no effect and ±100 for the full control effect
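Protein mix (5X: 125 nM each GST-E1A, His-CtBP) was incubated with pinned compound 2 h at 37 deg C in dark, in 50 mM Tris pH 8.0 buffer with 300 mM NaCl. Glutathione donor and nickel acceptor beads followed; AlphaScreen signal read after 1 h.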
Six1-Eya2 inh = qHTS Assay for Inhibitors of the Six1/Eya2 Interaction; Homeobox protein SIX1 (Homo sapiens) + Protein phosphatase EYA2 (Homo sapiens), …; AlphaScreen GST-Six1/His-Eya2 binding, biochemical; active compounds read low; control for the full effect not named in the record; activity change, % (concentration not given with the values); actives 0.56% (n = 360,000); AID 651725, 2012; in the data active = activity change below about -65%; inconclusive = about -30% to -65%; inactive = above about -30%; also: % is scaled to controls: 0 for no effect and ±100 for the full control effect
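AlphaScreen with GST-Six1 and His-Eya2 (5X mix: 250 nM and 500 nM), glutathione donor and nickel acceptor beads; buffer 50 mM Tris pH 8.0, 300 mM NaCl, 1 mM TCEP; 1 h at 37 C in the dark.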
D2 PAM = Beta-Arrestin HTS for Positive Allosteric Modulators of the Human D2 Dopamine Receptor: Potentiators | DiscoveRx D2 beta-arrestin cells, luminescence, 90 min; 100% = 57 uM dopamine signal | AID 624464, 2012 | potentiation, % (test concentration not listed) | actives 0.23% (n = 360,000); active = potentiation of 50% or more; inconclusive = 30% to 50%; inactive = 30% or less;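 also: compound concentration not given in the record; tested on top of an EC20 dose of dopamine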
Target sequence (P14416 whole entry, looked up): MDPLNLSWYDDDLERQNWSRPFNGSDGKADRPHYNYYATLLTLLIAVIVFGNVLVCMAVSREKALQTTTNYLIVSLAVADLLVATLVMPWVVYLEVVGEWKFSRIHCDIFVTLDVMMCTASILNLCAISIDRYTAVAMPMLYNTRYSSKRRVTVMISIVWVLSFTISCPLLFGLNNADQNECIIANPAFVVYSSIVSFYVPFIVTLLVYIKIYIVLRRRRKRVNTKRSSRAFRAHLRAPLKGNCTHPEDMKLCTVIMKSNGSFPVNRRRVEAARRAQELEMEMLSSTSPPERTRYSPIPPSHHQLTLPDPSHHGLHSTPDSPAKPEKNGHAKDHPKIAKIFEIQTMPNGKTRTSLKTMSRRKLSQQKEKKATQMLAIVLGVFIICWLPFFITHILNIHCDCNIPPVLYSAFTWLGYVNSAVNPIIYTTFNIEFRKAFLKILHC
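D2 cells co-treated with compound plus 50 nM dopamine (EC20) for 90 min at 37 deg C to detect potentiation. Beta-arrestin recruitment was read as enzyme-fragment luminescence after 1 h at ambient temperature. Full response was set by 57 uM dopamine.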
TRPV1 potentiator = HTS Assay for Compounds that Act as Potentiators of the Vanilloid Receptor 1. actives 0.02% (n = 320,000). potentiation, % at 8.33 µM. TRPV1-expressing cells, Fluo-8 calcium influx, capsaicin EC20 potentiation; host cell line not named in the record; control for the full effect not named in the record; active means potentiation above 80%; inconclusive means 30% to 80%; inactive means below 30%; also: 0% is about no effect
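Cells expressing TRPV1 were dye-loaded with Fluo-8 and read kinetically: 10 s baseline, 3 min after compound (agonist portion), then 2 min after EC20 capsaicin (allosteric enhancer portion). Calcium-bound dye fluorescence at 480/520 nm.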
TRPML1 inh = qHTS for Inhibitors of the Human Mucolipin Transient Receptor Potential 1 (TRPML1); activity change, negative = inhibition, % (no concentration beside the values); Mucolipin-1 (Homo sapiens), Q9GZU1; TRPML1-inducible cells, Ca2+ dye fluorescence, FDSS; active compounds read low; inhibition of EC80 agonist-evoked calcium signal; actives 0.02% (n = 390,000); in the data active means activity change below about -50%; inconclusive means about -30% to -50%; inactive means above about -30%;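 also: stimulus is agonist 54-4 at its EC80 concentration; % is scaled to controls: 0 for no effect and ±100 for the full control effect; compound concentration not given in the record; the text of the record puts the active cut at -80%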
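TRPML1-DL cells, Tet-induced overnight (~16 h, 37 °C) at 1,500 cells/well, were loaded with Ca8 no-wash dye plus quencher for 45-90 min at room temperature. Compounds were pinned during FDSS kinetic reading; agonist 54-4 at EC80 (4 uM final) then added.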
An asterisk follows results filed as active; u = inconclusive; x = no result given.

SMILES	TRPML1 agonist	CtBP-E1A inh	Six1-Eya2 inh	D2 PAM	TRPV1 potentiator	TRPML1 inh
O=C(O)C1CCCCC1C(=O)NCc1cn2ccccc2n1 (centres undefined)	-0.5	-1	-1	-2	6	15
COc1ccc(/C=C2/CCOC2=O)cc1	-0.9	4	2	4	-6	14
Cc1onc(-c2ccccc2)c1C(=O)NCc1ccc(F)cc1	-0.7	6	5	1	x	2
Cc1cccc(C)c1NC(=O)Nc1ccc(S(N)(=O)=O)cc1	-0.4	x	0	-5	u	23
N#Cc1c(/N=C/c2ccc(-c3ccc(C(=O)O)c(Cl)c3)o2)sc2c1CCCC2	1.1	-15	-23	15	-2	1
CCOc1ccccc1NC(=O)Cn1c(=O)n(-c2ccccc2)c(=O)c2oc3ccccc3c21	0.7	-1	0	-9	u	10
C=CCN(CC=C)S(=O)(=O)c1ccc(NC(=S)NC(=O)c2ccc(-c3ccccc3)cc2)cc1	1.3	0	-5	-44	-14	6
Cc1ccc(C2SCCN2C(=O)c2ccc([N+](=O)[O-])cc2)cc1 (centres undefined)	3.1	-2	-11	-13	-37	46
CCOC(=O)C1=C(C)N(C)C(=O)NC1c1c(OC)ccc2ccccc12 (centres undefined)	-0.5	7	2	-6	4	15
CCCNC(=O)CSc1nccn1Cc1ccco1	0.5	9	0	-3	-24	4
COc1cc(NC(=O)CCc2ccccc2)c(C(=O)O)cc1OC	-1.3	0	25	-13	-1	-6
CCc1ccccc1-n1c(-c2ccncc2)n[nH]c1=S	-0.5	0	5	-16	-1	11
COC(=O)/C=C1\SC(=NC(=O)c2ccc(OC)cc2)NC1=O	1.6	0	-12	1	1	-25
O=C(CSc1ncnc2c1oc1ccccc12)NCc1ccc(F)cc1	-0.7	5	-5	-8	26	18
Cc1ccc(-c2nn(-c3cc(Cl)ccc3[N+](=O)[O-])c(=O)c3ccccc23)cc1C	0.7	u	u	-3	0	-1
CCN1C(=O)[C@H]2[C@@H](c3ccc(C(F)(F)F)cc3)N[C@]3(CCCN(Cc4cccn4C)C3=O)[C@H]2C1=O	-0.7	-1	-7	0	x	-8
CC(NC(=O)C1CCCN(S(=O)(=O)c2ccc(-n3cnnn3)cc2)C1)c1ccc(F)cc1 (centres undefined)	0.0	3	8	-2	13	13
CCOc1cccc2cc(C(=O)NCc3ccc(OC)cc3)c(=N)oc12	-0.1	2	20	-31	-6	-9
CC(C)(C)NC(=O)c1ccc(NC(=O)CSc2ccccc2)cc1	-0.4	2	4	-4	13	6
COc1ccccc1N(Cc1ccccc1)S(=O)(=O)c1cccc(C(=O)NC2CC(C)(C)NC(C)(C)C2)c1	0.7	-3	-3	-30	7	9
CSc1ncc(CN2CCN(C3CCCCC3)C(CCO)C2)cn1 (centres undefined)	-0.6	9	0	-3	1	7
COc1ccc2cc3c(N)nn(C(=O)C4CCC(C(C)(C)C)CC4)c3nc2c1 (centres undefined)	-1.2	5	-2	-3	-11	-2
CC1(C)CC(=O)C(C(c2ccncc2)C2C(=O)CC(C)(C)CC2=O)C(=O)C1	-0.6	-3	-1	-11	2	27
O=C(Nc1cccc(-c2cnc3ccccc3n2)c1)c1ccccc1	-0.4	0	3	1	-11	-9
COc1cc(N2CN=c3s/c(=C\c4ccccn4)c(=O)n3C2)cc(OC)c1OC	-1.3	-3	-5	-3	-4	-8
COc1ccc(NC(=O)NNC(=O)COc2ccc3cc(Br)ccc3c2)cc1OC	-0.1	-5	-12	-28	-4	6
CSc1ccc(NC(=O)C2(C)CCN2C(=O)c2sccc2C)cc1 (centres undefined)	-1.2	-4	-11	-8	x	x
COc1ccc2cnnc(SCC(=O)Nc3ccccc3)c2c1OC	-1.6	-14	-3	-25	12	-4
Cc1c(CN2CCC(Oc3ccc(C(=O)N4CCCCC4)cc3)CC2)cnn1C	0.4	9	-6	-3	3	12
CCOc1ccc(Br)cc1C(=O)N/N=C/c1cccc(C)n1	0.8	x	2	-3	-1	13
COc1ccc(S(=O)(=O)N2CCCCC2)cc1NC(=O)C1COc2ccccc2O1 (centres undefined)	0.5	4	-10	10	-3	66
CCc1nc2c(OCc3cc(Cl)cc(Cl)c3)cccn2c1N(C=O)Cc1ccc(OC)cc1	0.5	12	1	-4	x	x
Cc1cccc(C(C)C)c1NC(=O)COC(=O)CCC(=O)N(CC(C)C)c1c(N)n(CC(C)C)c(=O)[nH]c1=O	-0.7	-2	4	4	x	27
Cc1ccc(C)c(S(=O)(=O)N2CCN(C(=O)CCC(=O)c3cc(C)sc3C)CC2)c1	0.1	-4	-7	11	11	12
CC1=C(C(=O)Nc2cccc(C(=O)N3CCC(C(N)=O)CC3)c2)SCCO1	0.1	2	1	-9	14	-4
CCNC(=S)N(Cc1ccccc1)Cc1nc2ccccc2c(=O)[nH]1	0.3	8	1	5	-4	5
COc1ccc(Cl)cc1N1C(=O)C2CCCN2C1c1cccc(F)c1 (centres undefined)	0.2	6	-1	-4	-19	0
COc1ccccc1NC(=O)COc1ccc(C(=O)OCC(=O)NC(C)(C)C)cc1OC	-0.5	-3	1	4	12	-9
Cc1ccc(S(=O)(=O)CC(=O)c2cc3cccc(C)c3oc2=O)cc1	0.6	x	14	-1	17	0
Cc1cc(/C=C(\C#N)C(=O)NCc2ccco2)c(C)n1-c1ccc(C(=O)O)cc1	0.4	-3	-7	-2	6	6
CC1CN(CCOc2ccccc2-c2ccccc2)CC(C)O1 (centres undefined)	2.5	-11	2	-25	8	-9
Cc1ccc(S(=O)(=O)N2CCC(C(=O)OC(C)C(=O)NCc3ccccc3)CC2)cc1C (centres undefined)	1.1	-1	1	-12	12	-2
O=C(N/N=C/c1cn(Cc2cccc(F)c2)c2ccccc12)c1cc(O)cc(O)c1	0.8	-72*	-75*	-27	29	-4
CCOc1ccc2nc(NC(=O)c3cccc(-c4cc5ccccc5oc4=O)c3)sc2c1	0.3	-8	13	2	2	7
O=C1CCC(C(=O)N2CCN(c3cnccn3)CC2)CN1CCc1ccccc1 (centres undefined)	-0.8	-2	2	-10	x	-13
Cc1ccc(NS(=O)(=O)c2ccc(N3C(=O)CCC3=O)cc2)cc1	0.1	-1	0	-2	-5	-15
CC1CC(C)(C)CC2(C1)NC(=O)N(CC(=O)N(C)Cc1nc3ccccc3c(=O)[nH]1)C2=O (centres undefined)	0.2	1	-6	-21	13	-14
Cc1cc(C(=O)OCC(=O)N(C)c2ccccc2)ccc1[N+](=O)[O-]	0.2	-3	-5	-2	-3	15
Cc1cc(C)n(CC(=O)NN)n1	0.6	x	-2	0	-2	0
O=C(O)CCSc1nnc(SCC(=O)NC2CCS(=O)(=O)C2)s1 (centres undefined)	0.7	0	-7	-8	x	2
Cc1cccc[n+]1C1C(c2ccc([N+](=O)[O-])cc2)C(C#N)=C(C(=C=[N-])C#N)NC1(O)C1CC1 (centres undefined)	3.8	x	-12	17	9	2
COc1cc(OC)c(C2SCCS2)c(OC)c1	-0.6	-12	-17	1	-1	0
Nc1ccc(N=Nc2ccccc2)c2ccccc12	0.7	-25	-16	1	22	10
CC(C)C(=O)O/N=C(\N)c1ccc(Oc2ccc(Cl)cc2)c([N+](=O)[O-])c1	-0.2	-17	-17	-1	13	-6
Cc1cccc(OCC(=O)NNC(=O)CSc2ncc(C#N)c(N)n2)c1	-0.6	u	u	1	0	-10
CCn1c(SCC(=O)c2ccc(O)c(O)c2)nnc1-c1ccccc1	-0.5	-2	-4	u	14	20
CC(=O)N1C2=CCCC3CCCCC23c2ccccc21 (centres undefined)	2.4	11	-1	-15	x	37
CC1(C)Cc2c(c(N3CCOCC3)nc3sc(C(=O)Nc4ccccc4)c(N)c23)CO1	-0.4	12	7	1	-5	19
Cn1c(CNc2ccc(Cl)cc2)nnc1SCCN1CCCCC1	-0.9	-7	-13	-21	8	-1
CCC1CCCCN1S(=O)(=O)c1ccc(NC(=O)c2snnc2C)cc1 (centres undefined)	-0.9	-2	-4	-3	-2	-1

Single records, as listed above. Order of screens: TRPML1 agonist	CtBP-E1A inh	Six1-Eya2 inh	D2 PAM	TRPV1 potentiator	TRPML1 inh
Record of Nc1ccc(N=Nc2ccccc2)c2ccccc12 : 0.7	-25	-16	1	22	10
Record of CC1CN(CCOc2ccccc2-c2ccccc2)CC(C)O1 (centres undefined) : 2.5	-11	2	-25	8	-9

Quoted from the listing:
CtBP-E1A inh with O=C1CCC(C(=O)N2CCN(c3cnccn3)CC2)CN1CCc1ccccc1 (centres undefined) → -2
D2 PAM with Cc1cc(C(=O)OCC(=O)N(C)c2ccccc2)ccc1[N+](=O)[O-] → -2
TRPML1 inh with O=C(O)CCSc1nnc(SCC(=O)NC2CCS(=O)(=O)C2)s1 (centres undefined) → 2
Six1-Eya2 inh with CC(C)C(=O)O/N=C(\N)c1ccc(Oc2ccc(Cl)cc2)c([N+](=O)[O-])c1 → -17

Carrying on.
SMILES	TRPML1 agonist	CtBP-E1A inh	Six1-Eya2 inh	D2 PAM	TRPV1 potentiator	TRPML1 inh
O=C(Nc1nc2ccccc2n1CCN1CCOCC1)c1ccc(Cl)cc1	-0.4	-18	-14	-2	4	0
CCOC(=O)C(=O)Nc1nnc(CCc2ccccc2)s1	-0.2	17	7	6	3	9
O=C(NCCCN1CCOCC1)c1ccc2nc(Cc3cccc(Cl)c3)oc2c1	0.8	-5	0	-9	u	6
Cc1cc(C)c2cc(C#N)c(SCC(=O)NCc3ccco3)nc2c1	-0.3	-3	-7	-11	-2	-13
CC(=O)c1ccc(S(=O)(=O)N(C)C(C)CCc2ccco2)cc1 (centres undefined)	1.8	-4	1	-13	-31	-11
COc1cccc(F)c1C(C[N+](=O)[O-])c1c(N)n(C)c(=O)n(C)c1=O (centres undefined)	1.8	x	4	-19	-3	-6
CC(C)(C)OC(=O)CNC(=O)c1nc[nH]c1C(=O)N1CCc2ccccc2C1	-0.4	4	1	-6	23	-12
N#Cc1ccccc1CSc1ccccn1	0.2	9	11	-16	11	7
O=C(Nc1ccc(N2CCOCC2)c(S(=O)(=O)Nc2ccc(Cl)cc2)c1)c1cnccn1	-0.2	x	-6	-14	-12	-8
Cc1cc(C)cc(OCc2nnc(SCC(=O)c3ccccc3)o2)c1	-0.5	9	-2	2	13	-5
CC(C)Cn1c(=S)[nH]c2cc(Cl)ccc21	0.5	-13	-6	-43	-6	10
Cc1cccc(CN2CCN(Cc3nc4c(s3)CCCC4)CC2CCO)n1 (centres undefined)	0.5	x	24	-11	3	5
CCCCCCCCCc1nc2sc3c(c2c(=O)n1NC(=O)c1ccccc1[N+](=O)[O-])CC(C)(C)OC3	0.1	0	-4	-5	19	72

This is a random part of the collection; 0.95% or so of the library scored in one or more.
